Screening results as filed in PubChem.
Vaccinia mCherry: inhibitors of vaccinia virus infection (mCherry reporter signal). Potency, µM (doses to about 36.5 µM), for inactives: at the highest dose activity change, negative = inhibition, usual class: inhibitors. AID 720579. Vaccinia virus mCherry reporter infection, fluorescence; about a quarter of the inactives have no number. 310,000 compounds, 0.63% hits; active = well fitted inhibition curve with a large enough effect; inconclusive = small, poorly fitted or top-dose-only effect; inactive = no such curve, though single readings can be large or run the other way; tested in A549 cells; note: nearly all actives have a fitted effect of over 35% in size; inactives centre near -10
Vaccinia Venus: vaccinia inhibition (Venus reporter) | AID 720580 | 330,000 compounds, 0.46% hits | Vaccinia virus Venus reporter expression, fluorescence | Potency, µM (series often up to 36.5 µM), for the others: at the highest dose activity change, negative = inhibition, most hits filed as inhibitors; active means well fitted inhibition curve with a large enough effect; inconclusive means small, poorly fitted or top-dose-only effect; inactive means no such curve, though single readings can be large or run the other way; tested in A549 cells; note: nearly all actives have a fitted effect of over 30% in size; inactives centre near -10
Numbers without * were called inactive; i = inactive; ? = inconclusive; . = not tested or not shown; & = joins results of further samples; [ ] = remark or other dose. % is set by controls: 0 for no effect and ±100 for the full control effect; potency is the fitted concentration of half-maximal effect.

no.	smiles	Vaccinia Venus	Vaccinia mCherry
1	O=C1Nc2c(c(=O)[nH]c(=O)n2-c2ccc(Cl)cc2)C1(NS(=O)(=O)c1ccccc1)C(F)(F)F (configuration not stated)	-14%	-5%
2	CCC(C(=O)Nc1ccccc1OC)n1nc(C)c2sc3ccccc3c2c1=O (configuration not stated)	-12%	-17%
3	O=C(Nc1ccccn1)C1CCN(S(=O)(=O)c2ccc(Cl)cc2)CC1	-28%	?
4	COc1ccc(-c2nnc(SCc3nnc(-c4cccs4)o3)n2CC2CCCO2)cc1 (configuration not stated)	-10%	-19%
5	Cc1cccc(OCC(=O)Nc2ccc(S(=O)(=O)N3CCN(C)CC3)cc2)c1	-5%	-17%
6	COC(=O)N/N=C\c1ccc(OC(=O)c2ccco2)cc1	-3%	i
7	COc1ccc(OCC(=O)N/N=C2\CCc3ccccc32)cc1	-10%	-17%
8	O=C(Nc1nc(-c2nc3ccccc3s2)cs1)c1ccco1	-3%	-5%

Whole records as entered above. Order of screens: Vaccinia Venus | Vaccinia mCherry
Entry for O=C1Nc2c(c(=O)[nH]c(=O)n2-c2ccc(Cl)cc2)C1(NS(=O)(=O)c1ccccc1)C(F)(F)F (configuration not stated) : -14% | -5%
Entry for O=C(Nc1nc(-c2nc3ccccc3s2)cs1)c1ccco1 : -3% | -5%
Entry for CCC(C(=O)Nc1ccccc1OC)n1nc(C)c2sc3ccccc3c2c1=O (configuration not stated) : -12% | -17%
Entry for COc1ccc(OCC(=O)N/N=C2\CCc3ccccc32)cc1 : -10% | -17%

The list goes on.
no.	smiles	Vaccinia Venus	Vaccinia mCherry
9	Cc1ccc(C(=O)Nc2ccc(N3CCCC3)cc2)cc1	-5%	-20%
10	COc1ccccc1NC(=O)C1=C(C)NC(=O)NC1c1ccccc1F (configuration not stated)	-4%	-13%
11	CSc1nc2sc3c(c2c(=O)[nH]1)CCCC3	-25%	-5%[1.46 µM]
12	NC(=O)C1CCN(C(=O)CSc2ccccn2)CC1	-8%	-13%
13	COc1ccccc1C(=O)N1CCCC(c2nc(SCCN3CCOCC3)ncc2C)C1 (configuration not stated)	0%	-11%
14	COc1ccc(OC)c(S(=O)(=O)N(C)CC(=O)O)c1	-8%	.
15	N#C/C(=C/c1ccc(-c2ccc(S(N)(=O)=O)cc2)o1)C(=O)Nc1ccccc1	-26%	-12%
16	Cc1ccc(NC(=O)c2c(F)cccc2Cl)cc1NS(C)(=O)=O	-9%	i
17	CC(=O)Nc1ccc(C(=O)NNC(=O)c2cccc(C)c2)cc1	-8%	-12%
18	Cn1c(=O)c2[nH]c(N3CCCCC3)nc2n(C)c1=O	47%[activator]	i
19	O=C(O/N=C1/CCCc2occc21)c1ccc(Cl)cc1Cl	2%	-8%
20	Cc1ccccc1Cn1ccc(NC(=O)CCSc2nc(-c3ccco3)cc(C(F)(F)F)n2)n1	8%	.
21	O=C(NCCCCCCCN1CCCCCCC1)C(C1CCCCC1)C1CCCCC1	?	-16%
22	O=C(OCC(=O)N1CCc2ccccc2C1)c1cccc([N+](=O)[O-])c1	-21%	-2%
23	C/C(=N\NC(=O)Cc1cccn1C)c1cccs1	-11%	-6%
24	Cn1cncc1C#Cc1ccc(N2C(c3ccsc3)=Cc3ccc(F)cc3C2c2c[nH]c3ccccc23)cc1 (configuration not stated)	-10%	26%
25	N#Cc1c(N)oc(-c2cccs2)c1-c1cccs1	9%	.
26	CCCOc1cccc(C2c3c(oc4ccc(F)cc4c3=O)C(=O)N2c2nc(C)c(C(C)=O)s2)c1 (configuration not stated)	-15%	-6%
27	CCc1ccnc(NC(=O)NS(=O)(=O)c2ccc(C)cc2)c1	4%	i
28	CC(C)(C)OC(=O)NCCCC[C@H](NC(=O)c1nc[nH]c1C(=O)NCC(=O)OCc1ccccc1)C(=O)OC(C)(C)C	?	-19%
29	CC1(C(=O)NS(=O)(=O)c2ccc(C#N)cc2)CCN1C(=O)Cc1ccc(-c2ccccc2)cc1 (configuration not stated)	0%	-8%
30	O=C(c1ccc(C(F)(F)F)cc1)N1CCC(=O)N(C(COCc2ccc(C(F)(F)F)cc2)Cc2ccccc2)CC1 (configuration not stated)	?	i
31	CCOC(=O)c1cc2sccc2n1CC(=O)Nc1ccc(OC)cc1OC	-9%	-19%
32	COc1ccc(OCCC(=O)OCC(=O)NC2CCCCC2)cc1	-3%	-14%
33	O=C(NC1=NCCS1)C1CCCCC1	-14%	i
34	Cc1ccc(C(=O)Nc2cccc(O)c2)cc1S(=O)(=O)N1CCCCCC1	-1%&-22%	-6%&1%
35	CC(NC(=O)CCNS(=O)(=O)c1cccc2nonc12)c1ccccc1 (configuration not stated)	-9%	-29%
36	Cc1cc(C)cc(C(=O)NCC(=O)OCC(=O)Nc2cccnc2Cl)c1	-4%	0%
37	O=C(CCCn1c(=O)c2cccn2c2ccccc21)NCCc1ccc(Cl)cc1	-14%	-9%
38	CC(=O)c1ccc(C(=O)N(CCCN(C)C)c2nc3c(C)c(C)ccc3s2)cc1	-15%	-11%
39	Cc1ccc(S(=O)(=O)N2[C@@H](c3ccccc3F)C(C(=O)O)=CC[C@H]2c2ccc3c(c2)OCO3)cc1	5%	-8%
40	Cc1c(C(=O)NC2CC(=O)N(c3ccc4c(c3)OCCO4)C2)cccc1[N+](=O)[O-] (configuration not stated)	-5%	-8%
41	C=CCn1c(-c2ccc([N+](=O)[O-])cc2)n[nH]c1=S	-16%	-13%
42	O=C(O)[C@@H]1CCCN1C(=O)CCc1c[nH]c2ccccc12	-15%	-12%
43	COc1ccc(C(=O)NC(NC(=S)Nc2ccc(S(N)(=O)=O)cc2)C(Cl)(Cl)Cl)cc1 (configuration not stated)	-23%	-29%
44	C/C(=N\Nc1cccc2cccnc12)c1ccccn1	-10%	i
45	CN(C(=O)c1ccc(NC(=O)Cc2cccc(NC(=O)C3CCN(C(=O)C4CC4)CC3)c2)cc1)C1CC1	-1%	i
46	O=C(O)C(c1ccccc1)C(O)C1CCCC1 (configuration not stated)	-1%	-14%
47	COc1ccc(NC(=O)CN(C)C(=O)Cn2c(=O)oc3ccccc32)cc1	-2%	-6%
48	CC(C)OC(=O)c1ccc(COC(=O)CNC(=O)c2ccco2)cc1	-1%	-11%
49	O=C(O)CCNS(=O)(=O)c1cccc2nsnc12	2%	-7%
50	Cc1ccccc1NC(=O)c1cccc2nc3ccccc3nc12	?	?
51	COc1ccc(COc2cc(-c3cccc(OC)c3)nc3ccc(NC(=O)C(C)C)cc23)cc1	-15%	-18%
52	CN(C)CCCN(C(=O)COc1ccccc1)c1nc2c(Cl)cccc2s1	-10%	-20%
53	CC(=O)Nc1ccc(S(=O)(=O)NC2CC(=O)N(c3ccc4c(c3)OCCO4)C2)cc1 (configuration not stated)	2%	-3%
54	CCOC(=O)C1CCN(C2=NC(=O)/C(=C/c3ccc(O)cc3)S2)CC1	0%	-2%
55	COCc1cc(=O)n2[nH]c(C)c(-c3ccccc3)c2n1	-15%	-4%
56	Cc1sc(-c2ccncc2)nc1OC(=O)c1cc(Cl)cc(Cl)c1	-6%	.
57	O=C(Nc1ccc2oc(-c3cccc4ccccc34)nc2c1)c1ncn[nH]1	-1%	-9%
58	COc1cc(-c2nc(-c3ccc(Br)o3)no2)cc(OC)c1OC	0%	-11%
59	Nc1cc(-c2ccc(OC(F)(F)F)cc2)nn1-c1ccc(Cl)c(Cl)c1	-17%	i
60	CC(=O)c1ccc(NC(=O)/C(=C\c2ccc(F)cc2)NC(=O)c2ccco2)cc1	0%	i
61	COc1ccc(N2C(=O)c3ccccc3NC23CCCC3)cc1	-15%	-19%
62	CCOCCCNC(=O)Cn1ncc2c([nH]c3ccc(C)cc32)c1=O	-19%	-14%
63	Cc1ccc(S(=O)(=O)N2[C@@H](c3ccc(Cl)cc3)C(C(=O)O)=CC[C@H]2c2ccc(Cl)cc2)cc1	-15%	i
64	CCC1(CCO)C(=O)NC(=S)NC1=O	-2%	-4%

Remaining list, next part
no.	smiles	Vaccinia Venus	Vaccinia mCherry
65	O=C(CSc1oc(-c2ccc(F)cc2)nc1S(=O)(=O)c1ccc(Br)cc1)NC1CCCCC1	-13%	-9%
66	COc1cccc(OC)c1NC(=O)NC(=O)c1c(OC)c(Br)cc([N+](=O)[O-])c1OC	-2%	-11%
67	CCc1nnc(NC(=O)CSc2nccn2-c2cccc(C)c2C)s1	?	?
68	Cn1c(=O)n(C/C=C/c2ccccc2)c(=O)c2c1nc1n2CCN1c1ccccc1	-1%	-12%
69	CC1(C)CC(=O)C(C(N)=NC(=O)c2ccc([N+](=O)[O-])cc2)=C(O)C1	4%	-7%
70	Cc1ccc(-c2nc3c(c(SCc4ccc(Br)cc4)n2)Cc2c(CO)cnc(C)c2O3)cc1	-14%	-6%
71	COc1ccc(NC(=O)CSc2nc3c(oc4ccccc43)c(=O)n2-c2ccc(C)c(C)c2)cc1	-12%	-12%
72	O=C(CSc1nccc(=O)[nH]1)c1ccccc1Br	-10%	-4%
73	CCOC(=O)c1ccc(NC(=O)Cc2coc3cc(C)cc(C)c23)cc1	1%	-7%
74	O=C(COC(=O)COc1ccccc1)Nc1ccc(Br)cc1F	-7%	-13%
75	Cc1ccc(S(=O)(=O)N2[C@@H](c3ccc(Br)cc3)C(C(=O)O)=CC[C@H]2c2cccs2)cc1	-10%	-22%
76	CCOC(=O)C1=CCC(c2cccs2)N(S(=O)(=O)c2ccc(C)cc2)C1 (configuration not stated)	5%	6%
77	CCc1ccc(NCc2cc3cc4c(cc3n(CC(=O)Nc3ccc(Cl)cc3)c2=O)OCO4)cc1	5%	-3%
78	COc1cccc(C2CC(c3ccc(Cl)cc3)n3nc(N)nc3N2)c1 (configuration not stated)	-11%	-6%
79	CCN(CC(=O)NCc1ccc(Cl)cc1)C(=O)Cc1ccc(OC)cc1	2%	i
80	O=C(OCCCCOC(=O)c1ccccc1)c1ccccc1	0%	i
81	Cn1ccc2c(/C=C/c3ccc(F)cc3)cc3c(c21)C1CCC3C1 (configuration not stated)	1%	i
82	COc1cc(OC)c(NS(=O)(=O)c2c(C)nc3sc(C)cn3c2=O)cc1Cl	?	?
83	c1cc2c(cnc3cscc32)s1	6%	-10%
84	COc1ccc2oc(C(=O)Nc3ccccc3N3CCOCC3)c(C)c2c1	-2%	i
85	CCNC(=O)C1CCCN(C(=O)c2ccccc2F)CC1 (configuration not stated)	4%	10%
86	O=C(Nc1ccccc1N1CCOCC1)c1csc2c1CCCC2	-9%[7.34 µM]	-9%[7.34 µM]
87	O=C(NCc1ccncc1)c1ccc(-c2ccc(F)c(F)c2)c2ccoc12	?	-9%
88	CC(C)CN1C(=O)C(=O)N(CC(=O)Nc2cc(Cl)ccc2Oc2ccccc2)C1=O	-14%	0%
89	CCOc1ccc(Nc2ncnc3c2cnn3-c2ccc(F)cc2)cc1	2%	-12%
90	Cc1cccc(NCc2ccccc2)c1	-8%	?
91	C=C(C)C(=O)N1CCN(C(=O)C(=C)C)c2ccccc21	-8%	-1%
92	Cc1ccc(S(=O)(=O)NCCC(=O)N2CCN(Cc3ccccc3)CC2)cc1	-16%	-3%
93	COc1ccc(Cl)cc1NC(=O)CN(c1cccc(C)c1C)S(C)(=O)=O	-20%	-23%
94	O=C(C1CCCN1S(=O)(=O)c1cccc2cccnc12)N1CCN(c2ccccc2)CC1 (configuration not stated)	-6%	i
95	Cc1ccc(NC(=O)C2CCN(C(=O)c3cnn(-c4ccccc4)c3-n3cccc3)CC2)cc1C	-20%	-24%
96	Cc1cc(OCC(=O)NC2CCN(C)CC2)ccc1[N+](=O)[O-]	-5%	-2%
97	CCOc1ccccc1CNC(=O)CCC(=O)N1Cc2ccccc2Oc2ncccc21	-20%	i
98	Cc1ccc(-n2nc(C)c3c2NC(=O)CSC3c2ccc3c(c2)OCO3)cc1 (configuration not stated)	-13%	.
99	Clc1ccc(-c2c[nH]c3ccccc23)nn1	-12%	-10%
100	Cc1cccc(OC(C)C(=O)Nc2nonc2-c2ccc(Br)cc2)c1C (configuration not stated)	-8%	-12%
101	COc1ccc(C2C(=O)N(C3CCC(C)CC3)CC(=O)N2CCC2=CCCCC2)cc1OC (configuration not stated)	-8%	-5%
102	O=C1CCCN1CC(=O)N1CCCC(N2CCN(c3cccc(Cl)c3)CC2)C1 (configuration not stated)	-17%	i
103	CCNc1nc(NC(C)(C)C)nc(Oc2ccc(=O)n(-c3ccccc3)n2)n1	-14%	-13%
104	O=C(CSc1n[nH]c(-c2cccnc2)n1)Nc1ccc(Cl)cc1	1%	-8%
105	CCN(CC)CC#CCC1(O)c2ccccc2-c2ccccc21	-8%	-14%
106	Cc1cc(C)n2c(Nc3ccc4c(c3)OCCO4)c(C3CC3)nc2n1	-17%	-26%
107	Cc1ccc(NC(=O)OC(C)CNC(=O)Oc2cccc(C)c2)cc1 (configuration not stated)	-15%	-1%
108	CC(C(=O)NCc1cccs1)N1C(=O)c2ccccc2C1=O (configuration not stated)	-8%	.
109	O=C(CSc1ccc(Cl)cc1)N1CCN(c2ccc(Cl)cc2[N+](=O)[O-])CC1	-17%	-7%
110	O=C(c1cnc(N2CCN(c3ncccn3)CC2)c2ccccc12)N1CCN(c2ncccn2)CC1	-24%	-8%
111	CCc1ccc(-n2c(CCC(=O)O)ccc2-c2ccc(F)cc2)cc1	-1%	3%
112	Cc1ccc(C)n1-c1ccc(C(=O)/C=C/N(C)C)cc1	-16%	-1%
113	COc1ccc(CC(=O)N2CCCC(C)C2)cc1 (configuration not stated)	-14%	i
114	CCC1(C)Cc2ccccc2-c2c1c(=O)n(-c1ccc(C)cc1)c1nnnn21 (configuration not stated)	-16%	-28%

An unsorted share of the library; about 0.82% have a hit in one of these screens.
